Beta cell apopt: inhibitors of cytokine-induced beta cell apoptosis, primary screen, luminescence. AID 435005, 2010. 0.8% of 300,000 active. protection from apoptosis, % (test concentration not listed). INS-1E cytokine-induced death, ATP luminescence, 48 h; percent of positive-control rescue, neutral wells zero;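 active means all replicates at 75% or more, or half of them and the mean; inconclusive means half reach 75% but not the mean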;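 further: 0% = cytokine-treated negative control wells and 100% = positive control rescue; higher means more ATP so stronger rescue from cytokine killing; wells of about 40 µL received 100 nL stock; the first replicate is given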
LANA-H2B inh: blockers of LANA interaction with H2A/H2B – biochemical, FP readout, HTS, primary screen | inhibition, % (no concentration beside the values) | cell-free LANA-H2A/H2B peptide, fluorescence polarization | 0.6% of 320,000 active | Protein LANA1 (Human herpesvirus 8 type P (isolate GK18)), Q9QR71; in the data active means inhibition mostly above about 10%, no sharp cut-off; inactive means mostly below about 6.7%;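 further: stock transfer was 7.5 nL into about 10 µL; 0% = median of vehicle wells and 100% = median of positive control wells; one replicate is shown; the record names a cut of 25% in any replicate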
Target sequence (Q9QR71 whole entry, looked up): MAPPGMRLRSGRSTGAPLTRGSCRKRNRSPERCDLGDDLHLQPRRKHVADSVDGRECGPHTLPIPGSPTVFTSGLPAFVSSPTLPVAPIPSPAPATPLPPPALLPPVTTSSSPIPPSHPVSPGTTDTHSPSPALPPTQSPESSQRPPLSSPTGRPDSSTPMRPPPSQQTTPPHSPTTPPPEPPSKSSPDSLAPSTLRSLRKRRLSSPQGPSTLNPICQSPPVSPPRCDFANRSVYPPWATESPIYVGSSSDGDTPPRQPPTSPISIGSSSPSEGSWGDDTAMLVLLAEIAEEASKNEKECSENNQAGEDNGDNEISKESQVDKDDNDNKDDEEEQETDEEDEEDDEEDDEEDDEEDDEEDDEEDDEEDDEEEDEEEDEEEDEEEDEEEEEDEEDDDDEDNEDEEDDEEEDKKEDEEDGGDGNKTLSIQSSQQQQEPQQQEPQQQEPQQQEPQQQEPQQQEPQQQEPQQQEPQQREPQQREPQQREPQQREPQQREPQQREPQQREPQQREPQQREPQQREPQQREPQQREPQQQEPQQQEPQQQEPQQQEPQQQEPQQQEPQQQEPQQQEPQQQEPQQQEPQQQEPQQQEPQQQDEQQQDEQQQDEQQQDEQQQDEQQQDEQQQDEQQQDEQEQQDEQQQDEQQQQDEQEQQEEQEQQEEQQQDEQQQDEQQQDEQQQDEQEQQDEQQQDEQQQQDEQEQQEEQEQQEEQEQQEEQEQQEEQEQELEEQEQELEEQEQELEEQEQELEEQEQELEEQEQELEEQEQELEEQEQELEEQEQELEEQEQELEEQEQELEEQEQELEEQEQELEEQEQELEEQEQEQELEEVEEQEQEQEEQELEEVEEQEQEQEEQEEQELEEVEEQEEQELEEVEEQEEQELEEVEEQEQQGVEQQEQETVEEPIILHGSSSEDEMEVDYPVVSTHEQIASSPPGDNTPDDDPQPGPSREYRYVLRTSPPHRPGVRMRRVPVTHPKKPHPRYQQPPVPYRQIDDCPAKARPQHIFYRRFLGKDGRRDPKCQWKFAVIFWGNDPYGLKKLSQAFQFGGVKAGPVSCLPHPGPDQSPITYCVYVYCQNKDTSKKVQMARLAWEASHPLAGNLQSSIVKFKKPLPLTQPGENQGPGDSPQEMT
A1 inh: caspase 3/7 activation in MEF A1-2A-BIM cells, primary screen, A1 inhibitor project, cell-based, luminescence, HTS; 0.066% of 330,000 active; caspase activation, % (concentration not given with the values); Caspase-Glo 3/7 luminescence, 3 h; percent of clofoctol response, vehicle zero;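 active means over half of replicate activation scores above 10%, or exactly half above 10 with the replicate mean above 10; inconclusive means replicate mean below 10 yet half the replicates above 10; inactive means over half of replicates below 10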;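 further: wells of about 30 µL received 50 nL stock; many hits fall short of the cut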
UCH37 inh: inhibitors of human UCH37 deubiquitinase, primary screen, biochemical, Ub-AMC cleavage, fluorescence. AID 588478, 2011. inhibition, % (no concentration beside the values). purified proteasome/UCH37. 0.33% of 330,000 active. Ubiquitin carboxyl-terminal hydrolase isozyme L5 (Homo sapiens), Q9Y5K5;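 active means mean of two replicates above 20%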;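 further: 0% = compound-free wells with enzyme and 100% = wells lacking proteasome; stock transfer was 100 nL into about 20 µL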
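System: Proteasome-associated human UCH37 deubiquitinase; Input: 0.15 nM proteasome in added enzyme buffer; Also added: Ub-AMC substrate from 1 µM stock; Incubation: 30 min compound-proteasome preincubation then 25 min substrate reaction, room temperature; Detection: fluorescence, ex 355 nm, em 460 nm; Read-out: % inhibition of Ub-AMC cleavage fluorescence; Benchmarks: no-proteasome and no-compound wells.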
T cruzi repl: inhibitors of intracellular T. cruzi growth, primary screen, luminescence, NIH3T3 host cells; 1.4% of 300,000 active; T. cruzi beta-gal in NIH3T3, 90 h; AID 1885, 2009; inhibition, % (no concentration beside the values);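 active means mean inhibition across valid replicates above about 55%, limit read from the data; inconclusive means mean below that limit but half or more replicates reach it; inactive means mean below it, under half of replicates reach it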;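 further: signal also drops with host cell toxicity which is not excluded here; 0% = plate median of DMSO wells and 100% = zero luminescence signal; higher percent means less beta-gal luminescence so fewer parasites; stock transfer was 50 nL into about 50 µL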
Calb FLC: C. albicans growth inhibition with fluconazole, primary screen, CaCi-2 strain, Alamar Blue fluorescence; C. albicans CaCi-2 (fluconazole-resistant clinical isolate) + fluconazole, 48 h; growth inhibition, % (concentration not given with the values); 0.57% of 300,000 active; AID 1979, 2009;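 active means most replicates above 75%; inconclusive means exactly half above 75%; inactive means most below 75%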;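 further: all wells also contain fluconazole at 8 µg/ml as a sub-toxic cotreatment; 0% = median of DMSO wells and 100% = median of geldanamycin control wells; wells of about 8 µL received 7.5 nL stock; the first replicate is given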
RanGTP-Impb inh: inhibitors of RanGTP-importin-beta interaction, primary screen, biochemical, FRET, CFP-Ran, YFP-importin-beta, homogeneous | inhibition, % (concentration not given with the values) | Ran GTPase (GTP-bound) - importin-beta complex | AID 2216, 2009 | cell-free CFP-Ran/YFP-importin-beta FRET ratio | 1.1% of 300,000 active;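 active means most replicates above 15%; inconclusive means exactly half above 15%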;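 further: 0% = DMSO wells and 100% = Ran loaded with GDP instead of GTP; wells of about 40 µL received 100 nL stock; the first replicate is given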
Beta2AR agonist: beta2AR agonists driving receptor internalization, primary screen, cell-based, FAP fluorogen, flow cytometry; Beta-2 adrenergic receptor (Homo sapiens), P07550; Am2.2-beta2AR cells; reference of the scale not given here; response, % (no concentration beside the values); 0.43% of 340,000 active; AID 504454, 2011;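 active means response above a set limit, near 3 SD of response in nonfluorescent compounds, cut at about 42% in these data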;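 further: stock transfer was 100 nL into about 11 µL; a reference agonist was the positive control; negative values mostly stem from fluorescent compounds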
* hit, by the source's call; ? = inconclusive; . = no result given. Outcome played no part in choosing rows; any-hit rate near 4.3%.

SMILES	Beta cell apopt	LANA-H2B inh	A1 inh	UCH37 inh	T cruzi repl	Calb FLC	RanGTP-Impb inh	Beta2AR agonist
COc1ccc(N=C2SC(C(=O)Nc3ccc(OC)cc3)CC(=O)N2CCN2CCOCC2)cc1 (stereo not given)	-10	1.3	-0.2	2.2	9	-6	-5.8	1
Cc1ccc(NC(=O)Cn2nnc(C(=O)NCc3ccco3)c2N)cc1	-2	-2.1	0.1	2.4	-5	2	-2.6	1
CC1(C)Cc2ccccc2-c2nnc(SCc3ccccc3)n21	-3	1.3	?	0.7	5	29	1.4	-15
CC(C)c1nc(NCCO)c2nnn(Cc3ccccc3)c2n1	-5	.	-0.9	-1.6	5	-5	-16	1
Cc1nc(C(=O)N2CCCC(C(=O)c3cccc(OC(C)C)c3)C2)cs1 (stereo not given)	-5	1.0	-1.3	-0.7	10	2	2.6	0
O=C(c1ccccc1)N1CCN(c2ccc([N+](=O)[O-])c(NCc3ccco3)c2)CC1	13	1.5	1.9	8.6	22	33	-5.0	-9
O=C(Nc1ccccc1)OCc1cn(-c2ccc(Cl)cc2)nn1	.	3.4	0.7	2.5	19	-3	1.7	-5
O=C(CSc1nncs1)NC(=O)NC1CCCC1	-1	5.8	0.2	4.1	0	2	0.2	-2
CC1(c2cccc(Br)c2)NC(=O)N(CC(=O)NCC2CCCO2)C1=O (stereo not given)	-2	-1.3	1.3	2.4	.	.	.	-5
Cc1ccc(C)c(N2CCN(S(=O)(=O)c3cccc4cccnc34)CC2)c1	-8	2.9	0.3	5.8	-2	-10	-1.3	5
O=C(Nc1cccnc1)c1sc(Nc2ccccc2)nc1-c1ccccc1	4	2.9	1.4	-273	-9	21	1.8	8
O=C(CN1C(=O)CSc2ccc(S(=O)(=O)N3CCOCC3)cc21)NCCCN1CCOCC1	-6	2.4	0.0	0.8	-3	-5	151*	11
O=C(Nc1ccc(C(F)(F)F)cc1)N1CCN(c2ccnc3cc(Cl)ccc23)CC1	11	-3.2	-0.2	-6.5	69*	24	1.6	35
COC(=O)c1ccccc1NC(=O)Nc1cc(C(C)(C)C)on1	-2	0.7	0.1	.	-10	-5	5.5	-16
COc1ccc2c(C)cc3nncn3c2c1	.	4.1	-0.3	-0.6	-15	-1	?	-10
O=C(NC1CCCN(Cc2ccc(Cl)cc2)C1)c1cnc2ccccn2c1=O (stereo not given)	1	-1.1	0.4	-342	23	-4	?	1
O=C(O)C1CC=CCC1C(=O)Nc1ccccc1 (stereo not given)	0	-1.5	-1.0	1.2	-10	-14	-1.3	1
CCOC(=O)c1c(NC(=S)NC(=O)c2ccc(Cn3cc(Cl)cn3)o2)sc2c1CCC(C)C2 (stereo not given)	-2	-0.8	0.4	.	-4	4	-0.4	-6
CN(Cc1cnccn1)Cc1cn(Cc2ccccc2)nc1-c1ccc2c(c1)OCO2	-7	3.0	-0.4	-1.6	12	-37	5.9	11
CC(OC(=O)c1ccc(S(=O)(=O)NCc2ccco2)cc1)C(=O)Nc1ccccc1 (stereo not given)	3	14*	-1.5	.	.	.	.	6
CC(C)C(c1nnnn1C1CCCC1)N1c2ccccc2CC1C (stereo not given)	4	0.3	1.1	1.5	1	25	-1.3	13
CCc1ccc(C(C)NC(=S)NC2CCCCC2)cc1 (stereo not given)	-2	2.1	0.1	5.0	-4	-31	0.1	-5
OC1CCN(Cc2nc(Cc3ccccc3Cl)no2)CC1	1	1.6	0.1	-0.5	1	2	4.1	7
O=C(CCC1CCN(C(=O)c2ccccc2Cl)CC1)NCc1ccc(F)cc1	.	-1.9	1.0	1.0	4	1	3.0	1
CC(Cc1cccnc1)NC(=O)c1ccccc1OC1CCN(S(C)(=O)=O)CC1 (stereo not given)	0	4.0	0.1	3.4	-5	2	-0.9	14
COc1nc(N(C)C)nc(N(OC)S(=O)(=O)c2ccccc2Cl)n1	-11	-2.0	-0.8	5.1	3	-3	3.4	3
CC(C)[C@H](NC(=O)N1CC(=O)Nc2ccccc21)C(=O)N[C@H](Cc1ccccc1)C(=O)O	-6	-8.9	-0.2	-0.1	-18	-4	12	3
O=C(Nc1ccccc1N1CCN(C(=O)c2ccccc2)CC1)c1cc(Br)ccc1Cl	3	-3.1	0.1	5.4	19	7	-0.3	10
CC(Sc1ccccc1F)C(=O)Nc1cccc(S(=O)(=O)N2CCOCC2)c1 (stereo not given)	-3	4.0	1.8	3.9	.	.	.	-2
O=C(CN1C(=O)c2ccccc2S1(=O)=O)NCc1cccnc1	-2	3.2	0.4	2.5	-6	33	4.0	-1

In the list so far, 3 have fluorine.
SMILES	Beta cell apopt	LANA-H2B inh	A1 inh	UCH37 inh	T cruzi repl	Calb FLC	RanGTP-Impb inh	Beta2AR agonist
O=C(Nc1ccc(C(F)(F)F)cc1)N1CCN(c2ccnc3cc(Cl)ccc23)CC1	11	-3.2	-0.2	-6.5	69*	24	1.6	35
O=C(CCC1CCN(C(=O)c2ccccc2Cl)CC1)NCc1ccc(F)cc1	.	-1.9	1.0	1.0	4	1	3.0	1
CC(Sc1ccccc1F)C(=O)Nc1cccc(S(=O)(=O)N2CCOCC2)c1 (stereo not given)	-3	4.0	1.8	3.9	.	.	.	-2

A few values from the entries so far.
OC1CCN(Cc2nc(Cc3ccccc3Cl)no2)CC1 @ A1 inh: 0.1
CCOC(=O)c1c(NC(=S)NC(=O)c2ccc(Cn3cc(Cl)cn3)o2)sc2c1CCC(C)C2 (stereo not given) @ LANA-H2B inh: -0.8
O=C(Nc1ccccc1N1CCN(C(=O)c2ccccc2)CC1)c1cc(Br)ccc1Cl @ A1 inh: 0.1
O=C(O)C1CC=CCC1C(=O)Nc1ccccc1 (stereo not given) @ UCH37 inh: 1.2

(listing goes on)
SMILES	Beta cell apopt	LANA-H2B inh	A1 inh	UCH37 inh	T cruzi repl	Calb FLC	RanGTP-Impb inh	Beta2AR agonist
COCCN(Cc1cccs1)S(=O)(=O)c1ccc(-c2ccc(=O)[nH]n2)s1	10	-0.1	-0.2	2.8	-12	-2	12	3
CC1=NOC(=O)/C1=C\c1ccc(-c2ccc(Cl)cc2Cl)o1	.	.	.	.	-22	-9	1.4	99*
COc1cc(SC)ccc1C(=O)Nc1cccc(S(=O)(=O)NC2=NCCC2)c1	-4	0.6	0.2	0.2	.	.	.	-5
CNc1ncc(Cc2ccccc2)s1	-6	-5.4	-0.2	5.0	-2	-6	-1.9	-3
CC(NC(=O)C12CC3CC(CC(O)(C3)C1)C2)c1ccc(Cl)cc1Cl (stereo not given)	-4	2.7	1.1	4.3	11	4	?	-2
CCCN(CCC)C(=O)CC(c1ccc(F)cc1)c1ccco1 (stereo not given)	-14	4.2	-0.6	3.3	-4	9	-1.8	10
CC(=O)OCCn1c(C)[n+](CCOC(C)=O)c2cc(Cl)c(Cl)cc21	-4	0.4	-1.0	0.5	2	-2	-2.5	3
Cc1ccc(S(=O)(=O)NC(=O)Nc2ccc(F)cc2)cc1	-6	3.6	0.9	-0.4	-16	-17	-0.3	0
CN(C)/C=C/C(=O)Oc1ccc(Cl)cc1Cl	0	1.3	1.3	0.8	-9	24	1.3	7
Cc1ccn2cc(CCNS(=O)(=O)c3ccc([N+](=O)[O-])cc3)nc2c1	-2	-0.3	0.6	5.6	12	2	3.6	-4
CCCC(=O)Nc1ccccc1NC(=O)CN(C)S(=O)(=O)c1ccc(C)cc1	1	2.5	0.3	1.0	-8	-3	-0.8	0
O=C(CSc1nc2ccc(Cl)cc2[nH]1)c1cccs1	-3	7.6	0.6	.	-4	1	3.2	4
CCOC(=O)C1CCCN(C(=O)c2ccc([N+](=O)[O-])cc2)C1 (stereo not given)	-6	0.3	0.7	-1.2	-5	22	-1.3	-11
O=C(c1ccc(Cl)cc1)c1oc2ccccc2c1CS(=O)c1ccccc1 (stereo not given)	4	3.2	0.4	3.4	21	8	0.4	-5
CCC(C)(C)c1ccc(OCC(=O)Nc2ccncc2)cc1	-8	1.5	0.1	1.3	1	2	1.1	5
O=C(O)c1ccc(N2C(=O)c3cccc(Oc4ccc(Cl)cc4)c3C2=O)cc1	1	-0.2	?	1.8	-13	?	3.0	-11
CCOC(=O)c1cccc(NC(=O)Cn2nc(C)n3cccc3c2=O)c1	.	-0.3	0.6	5.2	1	-16	3.7	1
CSCCC(NS(=O)(=O)c1ccccc1)C(=O)OC(C)C(=O)Nc1ccc(Cl)cn1 (stereo not given)	-3	-3.9	-1.3	5.0	.	.	.	-4
Cc1ccccc1NC(=O)NCCc1ccc(Cl)cc1	5	1.8	0.5	0.0	10	-5	-0.6	-2
Clc1ccc(Cl)c(Oc2ccc(Oc3nc(Cl)ccc3Cl)cc2)n1	2	-3.7	1.0	3.8	-25	5	3.2	25
N#CCCN(CCC#N)C(=O)C1c2ccccc2Oc2ccccc21	-7	114*	-1.3	.	-2	3	-4.1	-25
O=c1[nH]cnc2c1c(-c1ccccc1)cn2-c1cccc(Cl)c1	-2	-6.1	0.0	-1.5	23	18	4.8	6
O=c1c2ccccc2cnn1-c1ccc(Cl)nn1	0	-3.0	-0.4	-0.1	-4	2	2.1	-7
Cc1ccc(C(=O)CCc2ccc(N)cc2)cc1	0	-8.4	0.1	2.1	11	-1	-1.2	4
COc1ccc(OC)c(/C=N/NC(=O)c2cc3c(OC)c(OC)ccc3[nH]2)c1	-11	-1.4	-0.8	.	-11	-4	-1.8	7
CCOC(=O)[C@H]1[C@H]2COc3ccc(OC)cc3[C@@H]2N2C(=O)c3cc(OC)c(OC)cc3NC(=O)[C@@]12C	-3	-1.6	0.1	1.7	.	.	.	0
Cc1ccc(C(=O)Nc2ccccc2-c2ccccc2)cc1[N+](=O)[O-]	16	-0.3	0.1	0.0	9	-26	3.9	-15
CS(=O)(=O)Nc1cccc(C(=O)OCCCOc2ccc(F)cc2)c1	2	-4.6	-0.6	0.5	6	8	1.7	4
CN(C)C(=O)CSc1n[nH]c(=O)n1CCc1ccccc1	0	-0.2	0.0	1.4	3	1	-0.6	0
Cc1nn(-c2cccc(Cl)c2)c2c1C(c1ccncc1)C(C#N)=C(N)O2 (stereo not given)	.	-0.7	-0.8	6.7	9	0	0.0	-1
CCOC(=O)NCc1cc(-c2nn(C)c(=O)c3ccccc23)ccc1C	4	1.7	-0.7	3.1	6	-7	-4.4	11
COc1ccccc1NC(=O)Nc1nc(CC(=O)NCc2ccccn2)cs1	2	0.3	0.3	2.0	-16	0	-1.6	8
O=C(Cc1ccccc1)Nc1ccccc1C(=O)O	-3	3.6	-3.6	1.7	2	5	4.1	2
